Compound activity (PubChem BioAssay)
ID4 binder: ID4 (human) binding. P47928. small molecule microarray, Flag-ID4 binding, fluorescence F/B. calls only. 31,000 tested, 1.2% active. AID 624137;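 active = spot signal over background at p below 0.07 in all four prints; compounds were printed on slides so no solution concentration is given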;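 also: a binder raises fluorescence above local background on the spot; about 2 pmol printed per array spot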
Target sequence (P47928 whole entry, looked up): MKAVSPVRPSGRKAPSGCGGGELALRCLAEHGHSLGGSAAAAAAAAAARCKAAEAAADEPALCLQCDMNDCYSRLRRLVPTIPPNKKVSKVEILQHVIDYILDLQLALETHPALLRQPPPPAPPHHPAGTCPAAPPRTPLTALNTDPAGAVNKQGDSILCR
STAT3 binder: STAT3 (human) binding. P40763. Small molecule microarray, His-STAT3 binding, anti-His fluorescence. calls only. 17,000 tested, 0.2% active;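 active = compounds whose four printed spots each show fluorescence over background unusually high for their array block, chance value under 7%; compounds were printed on slides so no solution concentration is given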;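 also: about 2 pmol printed per array spot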
Target sequence (P40763 whole entry, looked up): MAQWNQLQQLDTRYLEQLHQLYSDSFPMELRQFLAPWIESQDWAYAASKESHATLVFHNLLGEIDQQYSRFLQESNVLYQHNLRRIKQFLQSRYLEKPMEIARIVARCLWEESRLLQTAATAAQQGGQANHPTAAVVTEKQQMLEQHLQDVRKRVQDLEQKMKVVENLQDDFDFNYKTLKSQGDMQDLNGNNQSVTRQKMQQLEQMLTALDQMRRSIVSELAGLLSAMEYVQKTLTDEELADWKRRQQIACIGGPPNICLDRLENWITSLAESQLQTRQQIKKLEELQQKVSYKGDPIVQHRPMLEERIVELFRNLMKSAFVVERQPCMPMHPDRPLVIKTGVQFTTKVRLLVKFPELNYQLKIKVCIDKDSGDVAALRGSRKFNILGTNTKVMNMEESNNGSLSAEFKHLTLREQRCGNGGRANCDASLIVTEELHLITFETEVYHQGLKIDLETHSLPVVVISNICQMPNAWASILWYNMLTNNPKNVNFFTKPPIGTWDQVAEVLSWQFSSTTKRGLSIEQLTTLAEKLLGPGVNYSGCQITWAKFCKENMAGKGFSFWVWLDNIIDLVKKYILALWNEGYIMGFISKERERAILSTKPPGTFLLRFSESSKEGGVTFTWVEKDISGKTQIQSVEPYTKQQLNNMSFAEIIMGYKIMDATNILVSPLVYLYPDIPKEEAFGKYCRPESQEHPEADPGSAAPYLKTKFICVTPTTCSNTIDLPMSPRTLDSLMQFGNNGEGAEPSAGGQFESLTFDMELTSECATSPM
Myc binder: binds human c-Myc on microarray | calls only | AID 624141 | 17,000 tested, 1.5% active | P01106 | small molecule microarray, His-c-Myc binding, anti-His fluorescence;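 active = spot fluorescence over background with P-value below 7% in all four replicate spots, showing protein binding; compounds were printed on slides so no solution concentration is given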;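 also: score is binary with 100 for all four spots passing and 0 otherwise; about 2 pmol printed per array spot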
p53 mut binder: mutant p53 (human) binding; small molecule microarray binding, anti-GST fluorescence; calls only; 17,000 tested, 0.4% active; AID 624136;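 active = compounds whose four printed spots each glow above background more than chance allows, each with a p-value under 7%; compounds were printed on slides so no solution concentration is given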;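 also: about 2 pmol printed per array spot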
Calls only; i = inactive; . = no result given; + = active, no number. A portion of the library; the hit share may differ from the screen's.

SMILES	ID4 binder	STAT3 binder	Myc binder	p53 mut binder
COc1ccc(S(=O)(=O)Nc2ccc3c(c2)CC(=O)N([C@H](C)CO)C[C@@H](C)[C@@H](CN(C)CC2CC2)O3)cc1	i	i	i	i
CC(=O)N[C@@H](CSC/C=C(\C)CC/C=C(\C)CCC=C(C)C)C(=O)O	i	i	i	i
C[C@@H]1CN([C@H](C)CO)C(=O)c2cccc(NS(=O)(=O)c3cccs3)c2O[C@@H]1CN(C)Cc1ccc(C(F)(F)F)cc1	i	i	i	i
C[C@@H]1CN([C@H](C)CO)C(=O)Cc2cc(NC(=O)C3CC3)ccc2O[C@H]1CN(C)C(=O)Nc1ccc(F)cc1	i	i	i	i
NCCCCCCNC(=O)[C@@H]1C[C@@H]2C(=O)NCC(=O)N2[C@@H]1c1cccc(OCCO)c1	+	i	i	i
C[C@@H]1CN([C@@H](C)CO)C(=O)c2cc(NC(=O)NC3CCCCC3)ccc2O[C@@H]1CN(C)S(=O)(=O)c1cn(C)cn1	i	i	i	i
CCNc1nc(SC(C)C(=O)Nc2ccccc2)nc(N2CCOCC2)n1 (stereo not drawn)	i	i	i	i
COc1cc(OC)c2ccc(=O)oc2c1CC(O)C(C)(C)O (stereo not drawn)	i	i	i	i
Cc1nc([N+](=O)[O-])c(NCCO)n1Cc1ccccc1	i	i	i	i
C[C@H](CO)N1C[C@H](C)[C@@H](CN(C)C(=O)Nc2ccccc2)Oc2c(NC(=O)Nc3ccc(C(F)(F)F)cc3)cccc2C1=O	.	i	i	i
C[C@H]1CN([C@@H](C)CO)C(=O)c2cccc(NS(=O)(=O)c3ccc(Cl)cc3)c2O[C@@H]1CN(C)Cc1ccncc1	i	i	i	i
COc1ccc(S(=O)(=O)N(C)C[C@H]2Oc3ccc(NC(=O)CCCN(C)C)cc3C(=O)N([C@@H](C)CO)C[C@@H]2C)cc1	i	i	i	i
COc1ccc(S(=O)(=O)Nc2cccc3c2O[C@H](CN(C)S(=O)(=O)c2cccs2)[C@H](C)CN([C@@H](C)CO)C3=O)cc1	i	i	i	i
C[C@@H]1CN([C@H](C)CO)C(=O)c2cc(NC(=O)NC3CCCCC3)ccc2O[C@@H]1CN(C)S(=O)(=O)c1cccs1	i	i	i	i
C[C@H]1CN([C@@H](C)CO)C(=O)Cc2cc(NC(=O)Cc3cn(C)c4ccccc34)ccc2O[C@H]1CN(C)Cc1ccc(Oc2ccccc2)cc1	.	i	i	i
C[C@@H]1CN([C@H](C)CO)C(=O)Cc2cc(NC(=O)Cn3cnnn3)ccc2O[C@H]1CN(C)C(=O)Nc1ccccc1	i	i	i	i
CN(C)S(=O)(=O)c1ccc(Cl)c(C(=O)Nc2ccccc2[N+](=O)[O-])c1	i	i	i	i
NS(=O)(=O)c1cc(Cl)c(Cl)c(S(N)(=O)=O)c1	i	i	i	i
C=CC(C)(O)CC(/C=C(\C)CC(/C=C(\C)CCC=C(C)C)OC(C)=O)OC(C)=O (stereo not drawn)	i	i	i	i
Cc1ccc(NC(=O)CSc2ncnc3sc4c(c23)CCC4)cc1	i	i	i	i
CC1(C)C[C@H](O)C[C@@]2(C)[C@H]1[C@H](O)C=C1COC(=O)[C@@]12O	i	i	i	i
C[C@@H]1CCCCO[C@H](CN(C)C(=O)CCC(F)(F)F)[C@H](C)CN([C@@H](C)CO)C(=O)c2cc(NC(=O)Cc3ccccc3)ccc2O1	i	i	+	i
COc1ccc(NC(=O)CCC2COc3ccccc3O2)c(OC)c1 (stereo not drawn)	i	i	i	i
CC(C)NC(=O)N(C)C[C@@H]1Oc2ccc(N(C)C)cc2CC(=O)N([C@H](C)CO)C[C@@H]1C	i	i	i	i
Cc1noc(C)c1NC(=O)N(C)C[C@H]1Oc2ccc(NC(=O)NC(C)C)cc2CC(=O)N([C@H](C)CO)C[C@@H]1C	i	i	i	i
Continued.
SMILES	ID4 binder	STAT3 binder	Myc binder	p53 mut binder
C[C@H](CO)N1C[C@H](C)[C@@H](CN(C)S(=O)(=O)c2ccccc2)Oc2ccc(NC(=O)CCN3CCOCC3)cc2CC1=O	i	i	i	i
COc1ccc(-c2cn(CC(=O)N3CCN(C)CC3)nn2)cc1OC	.	i	i	i
Cc1noc(C)c1NC(=O)N(C)C[C@H]1Oc2c(NC(=O)C3CCOCC3)cccc2C(=O)N([C@H](C)CO)C[C@H]1C	i	i	i	i
N#C/C(=C/c1ccc(O)c(O)c1)C(=O)NCCCc1ccccc1	i	i	i	i
C[C@@H]1CN([C@H](C)CO)C(=O)Cc2cc(NC(=O)NC3CCCCC3)ccc2O[C@H]1CN(C)Cc1ccncc1	i	i	i	i
CN(C(=O)CN1C(=O)c2ccccc2S1(=O)=O)c1ccccc1C(=O)O	i	i	i	i
COc1ccc(S(=O)(=O)N(C)C[C@H]2Oc3ccc(NC(=O)CCCN(C)C)cc3C(=O)N([C@H](C)CO)C[C@@H]2C)cc1	+	i	i	i
COc1ccccc1C(=O)n1nc(-c2ccccc2)nc1NCc1ccco1	i	i	i	i
CCN(CC(=O)O)S(=O)(=O)c1ccc(F)cc1	i	i	i	i
C[C@H](CO)N1C[C@H](C)[C@H](CN(C)C(=O)Nc2ccccc2)Oc2ncc(C#CC(C)(C)O)cc2C1=O	i	i	i	i
Cc1nc(S(=O)(=O)N[C@H]2CCN(Cc3cccc(OCCO)c3)C2)cn1C	.	i	i	i
COc1ccc(CN(C)C[C@H]2OCCCC[C@@H](C)Oc3ccc(NC(=O)Nc4ccc5c(c4)OCO5)cc3C(=O)N([C@@H](C)CO)C[C@@H]2C)cc1	.	i	i	i
C[C@@H]1CCCCO[C@@H](CN(C)S(C)(=O)=O)[C@@H](C)CN([C@@H](C)CO)C(=O)c2cc(NS(=O)(=O)c3ccccc3)ccc2O1	i	i	i	i
C=C(C)[C@@H]1CC[C@]2(C(=O)O)CC[C@]3(C)[C@H](CCC4[C@]5(C)C(CC[C@]43C)[C@@](C)(CO)[C@@H](O)[C@@H]5C(=O)O)C12 (stereo partly drawn)	.	i	i	i
C[C@H](CO)N1C[C@H](C)[C@H](CN(C)S(=O)(=O)c2ccc(F)cc2)Oc2c(NS(=O)(=O)c3ccccc3)cccc2C1=O	.	i	i	i
CC1(C)CC[C@]2(C(=O)O)CC[C@]3(C)C(=CCC4[C@@]5(C)CC[C@H](O[C@@H]6O[C@H](C(=O)O)[C@@H](O[C@@H]7O[C@H](CO)[C@@H](O)[C@H](O)[C@H]7O)[C@H](O)[C@H]6O[C@@H]6O[C@H](CO)[C@@H](O)[C@H](O)[C@H]6O)C(C)(C)C5CC[C@]43C)C2C1 (stereo partly drawn)	.	+	+	i
C=CC1(C)C=C2CCC3C(C)(C)C(O[C@@H]4O[C@@H](CO)[C@H](O)[C@H]4O)CCC3(C)C2CC1O[C@@H]1O[C@H](C)[C@H](O)[C@H](O)[C@H]1O (stereo partly drawn)	i	i	i	i
C[C@@H]1CN([C@H](C)CO)C(=O)c2cc(NS(C)(=O)=O)ccc2O[C@H]1CN(C)Cc1ccccc1	i	i	i	i
O=C(CS(=O)c1ccccc1[N+](=O)[O-])Nc1cccc(C(F)(F)F)c1 (stereo not drawn)	i	i	i	i
O=C(/C=C/c1ccc(O)cc1)OC[C@]12O[C@H]1[C@@H](O)[C@@H]1C=CO[C@@H](O[C@@H]3O[C@H](CO)[C@@H](O)[C@H](O)[C@H]3O)[C@@H]12	.	i	i	i
C[C@H]1CN([C@@H](C)CO)C(=O)c2cc(NS(=O)(=O)c3cn(C)cn3)ccc2O[C@@H]1CN(C)Cc1ccccc1	+	i	i	i
CNC[C@H]1OCc2cn(nn2)CCCC(=O)N([C@H](C)CO)C[C@H]1C	i	i	i	i
COc1cc(O)c2c(=O)oc3c(O)c(OC)cc(C)c3c2c1	.	i	i	i
Cc1noc(C)c1NC(=O)Nc1ccc2c(c1)CC(=O)N([C@H](C)CO)C[C@@H](C)[C@@H](CN(C)S(=O)(=O)c1cccs1)O2	i	i	i	i
CN(CC(=O)Nc1cccc(Cl)c1)S(=O)(=O)c1ccccc1	i	i	i	i

Shown with two lines to a compound: 3 of the compounds above
The line under a structure holds: ID4 binder | STAT3 binder | Myc binder | p53 mut binder
> C[C@H]1CN([C@@H](C)CO)C(=O)c2cccc(NS(=O)(=O)c3ccc(Cl)cc3)c2O[C@@H]1CN(C)Cc1ccncc1
  i | i | i | i
> CCN(CC(=O)O)S(=O)(=O)c1ccc(F)cc1
  i | i | i | i
> Cc1nc(S(=O)(=O)N[C@H]2CCN(Cc3cccc(OCCO)c3)C2)cn1C
  . | i | i | i

The list goes on.
SMILES	ID4 binder	STAT3 binder	Myc binder	p53 mut binder
C[C@@H]1CN([C@H](C)CO)C(=O)c2cc(NC(=O)Nc3ccccc3)ccc2O[C@@H](C)CCCCO[C@H]1CN(C)C	i	i	i	i
C[C@H]1CN([C@@H](C)CO)C(=O)CCCn2cc(nn2)CO[C@H]1CN(C)Cc1ccc2cccnc2c1	i	i	i	i
Cc1ccc(S(=O)(=O)N(C)CC(=O)Nc2ccccc2-c2ccccc2)cc1	i	i	i	i
C[C@@H]1CCCCO[C@H](CN(C)S(=O)(=O)c2ccccc2)[C@@H](C)CN([C@@H](C)CO)C(=O)c2cc(NC(=O)Nc3ccccc3)ccc2O1	i	i	i	i
C[C@H]1CN([C@@H](C)CO)C(=O)c2cccc(NC(=O)c3ccncc3)c2O[C@H]1CN(C)C(=O)Nc1cccc2ccccc12	i	i	i	i
C[C@@H]1CCCCO[C@@H](CN(C)C(=O)Nc2ccccc2)[C@H](C)CN([C@H](C)CO)C(=O)c2cc(NC(=O)CCC(F)(F)F)ccc2O1	i	i	i	i
Cc1ccc(OCC(=O)Nc2ccccc2N2CCN(S(C)(=O)=O)CC2)cc1	i	i	i	i
C[C@@H]1CN([C@H](C)CO)C(=O)Cc2cc(NC(=O)CCCN(C)C)ccc2O[C@@H]1CN(C)S(=O)(=O)c1ccc(Cl)cc1	.	i	i	i
COc1ccc(S(=O)(=O)N(C)C[C@@H]2Oc3c(NC(=O)Nc4cccc5ccccc45)cccc3C(=O)N([C@H](C)CO)C[C@H]2C)cc1	i	i	i	i
C[C@@H]1CCCCO[C@@H](CN(C)Cc2ccncc2)[C@@H](C)CN([C@@H](C)CO)C(=O)c2cc(N(C)C)ccc2O1	i	i	i	i
C[C@H]1CN([C@@H](C)CO)C(=O)c2cccc(NS(=O)(=O)c3ccccc3)c2O[C@H]1CN(C)C(=O)Nc1cccc2ccccc12	i	i	i	i
Cc1ccc(-c2cc(C(F)(F)F)n3nc(C(=O)NCc4ccco4)cc3n2)cc1	i	i	i	i
COC(=O)N(C)C[C@H]1OCc2cn(nn2)CCCC(=O)N([C@H](C)CO)C[C@@H]1C	i	i	i	i
C[C@H](CO)N1C[C@H](C)[C@H](CN(C)C(=O)NC2CCCCC2)Oc2c(NC(=O)Nc3cccc4ccccc34)cccc2C1=O	i	i	i	i
CC1(OC(=O)/C=C/c2ccccc2)CC(O)C2C=COC(OC3OC(CO)C(O)C(O)C3O)C21 (stereo not drawn)	.	i	i	i
COc1ccc(-c2csc3ncn(CC(N)=O)c(=O)c23)cc1OC	i	i	i	i
C[C@@H]1CN([C@@H](C)CO)C(=O)c2cccc(NC(=O)c3ccc(-c4nccs4)cc3)c2O[C@@H]1CN(C)C(=O)Nc1ccccc1	i	i	i	i
COc1ccc(S(=O)(=O)NCCc2ccc(OC)c(OC)c2)cc1C	i	i	i	i
COc1ccc(OC)c(NC(=O)c2ccc(C)c(S(=O)(=O)Nc3ccc(C)cc3)c2)c1	+	i	i	i
Cc1noc(C)c1NC(=O)N(C)C[C@@H]1Oc2c(NS(=O)(=O)c3cn(C)cn3)cccc2C(=O)N([C@H](C)CO)C[C@H]1C	i	i	i	i
C[C@H](CO)N1C[C@H](C)[C@@H](CN(C)C(=O)Nc2ccc(C(F)(F)F)cc2)Oc2ccc(NC(=O)NC3CCCCC3)cc2CC1=O	i	i	i	i
COc1ccc(S(=O)(=O)Nc2ccc3c(c2)C(=O)N([C@H](C)CO)C[C@@H](C)[C@@H](CN(C)Cc2ccncc2)O3)cc1	i	i	i	i
Cc1ccc(S(=O)(=O)Nc2cc(Cl)c(O)c(Sc3nc(C)cc(C)n3)c2)cc1	i	i	i	i
Cc1nc(S(=O)(=O)N[C@H]2CCN(Cc3ccc(OCCO)cc3)C2)cn1C	.	i	i	i
CC(=O)Nc1ccc(NC(=O)C2C3CCC(C3)C2C(=O)O)cc1 (stereo not drawn)	i	i	i	i
Cc1noc(C)c1S(=O)(=O)Nc1ccc2c(c1)C(=O)N([C@H](C)CO)C[C@H](C)[C@@H](CN(C)C(=O)c1ccncc1)OCCCC[C@@H](C)O2	i	i	i	i
C[C@@H]1CN([C@H](C)CO)C(=O)c2cccc(NS(=O)(=O)c3cn(C)cn3)c2O[C@H]1CN(C)CC1CC1	i	i	i	i

Full records, looked up by structure. Screens in order: ID4 binder | STAT3 binder | Myc binder | p53 mut binder
`Cc1ccc(NC(=O)CSc2ncnc3sc4c(c23)CCC4)cc1` is listed with i | i | i | i
`C[C@@H]1CN([C@@H](C)CO)C(=O)c2cccc(NC(=O)c3ccc(-c4nccs4)cc3)c2O[C@@H]1CN(C)C(=O)Nc1ccccc1` is listed with i | i | i | i
`Cc1noc(C)c1S(=O)(=O)Nc1ccc2c(c1)C(=O)N([C@H](C)CO)C[C@H](C)[C@@H](CN(C)C(=O)c1ccncc1)OCCCC[C@@H](C)O2` is listed with i | i | i | i
`Cc1nc([N+](=O)[O-])c(NCCO)n1Cc1ccccc1` is listed with i | i | i | i
`C=C(C)[C@@H]1CC[C@]2(C(=O)O)CC[C@]3(C)[C@H](CCC4[C@]5(C)C(CC[C@]43C)[C@@](C)(CO)[C@@H](O)[C@@H]5C(=O)O)C12` (stereo partly drawn) is listed with . | i | i | i
